Compound activity as filed in PubChem BioAssay.
gsp agonist: activates gsp, the McCune-Albright syndrome mutation. gsp mutant cells, cAMP HTRF, 30 min; control for the full effect not named in the record. Potency, µM (series often up to 76.9 µM), for the others: top-dose activation (cAMP increase), most hits filed as activators. actives 0.13% (n = 340,000). AID 624287; active = well fitted activation curve with a large enough effect; inconclusive = small, poorly fitted or top-dose-only effect, or another doubt; inactive = no such curve, though single readings can be large or run the other way; cell line not stated here;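 also: phosphodiesterase inhibitor Ro 20-1724 added with compounds to block cAMP breakdown; potency is read from the fitted curve at half-maximal effect; nearly all actives have a fitted effect of over 60% in size; about a fifth of the inactives were tested at one dose only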
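Cells in DMEM/10% FBS with G418 were pretreated with compounds in DMSO plus […] (300 uM stock) for 30 min at 37C. cAMP was measured by HTRF (cAMP-d2 plus anti-cAMP antibody-K) after 30 min at room temperature.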
gsp antagonist: antagonists of gsp mutant (McCune-Albright syndrome). gsp-mutant cells, cAMP HTRF, 30 min; control for the full effect not named in the record. Potency, µM (titrated, usually from 76.9 µM), inactives show top-dose activity change, negative = inhibition, hits mostly inhibitors. actives 0.4% (n = 340,000); active = falling curve of any shape with a large fitted effect; inconclusive = falling curve, mostly with a smaller effect; inactive = flat or rising curve; cell line not stated here;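 also: intracellular cAMP measured with PDE inhibitor Ro 20-1724 present during compound exposure; potency is read from the fitted curve at half-maximal effect; % is scaled to controls: 0 for no effect and ±100 for the full control effect; nearly all actives have a fitted effect of over 65% in size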
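Cells, 2000/well, grown 16–24 h in DMEM 10% FBS with 0.5 mg/ml G418, then compounds plus […] (300 uM addition stock), 30 min at 37C. cAMP read by HTRF (cAMP-d2 and anti-cAMP antibody-K in lysis buffer) after 30 min RT.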
Menin MLL FP FL: inhibitors of human menin-MLL interaction, wild-type MLL peptide; Fluorescence polarization, fluorescein-MLL peptide displacement from menin; FP activity change, % at 61.4 µM; 290,000 tested, under 10 active; AID 1766; inconclusive = falling polarisation curve, or a change in total fluorescence; inactive = total fluorescence flat and polarisation flat or rising; no compound was filed as active; the % refers to the polarisation; negative = inhibition;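 also: % of control where 0% means no effect; inhibitors lower the polarisation; unlabelled MLL peptide was the positive control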
TRPML1 blocker: inhibitors of human TRPML1 channel | Q9GZU1 | TRPML1-inducible cells, Ca2+ dye fluorescence, FDSS; active compounds read low; inhibition of EC80 agonist-evoked calcium signal | activity change, negative = inhibition, % (test concentration not listed) | actives 0.02% (n = 390,000) | AID 624415; in the data active means activity change below about -50%; inconclusive means about -30% to -50%; inactive means above about -30%;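 also: stimulus is agonist 54-4 at its EC80 concentration; % is scaled to controls: 0 for no effect and ±100 for the full control effect; compound concentration not given in the record; the text of the record puts the active cut at -80%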
Target sequence (Q9GZU1 whole entry, looked up): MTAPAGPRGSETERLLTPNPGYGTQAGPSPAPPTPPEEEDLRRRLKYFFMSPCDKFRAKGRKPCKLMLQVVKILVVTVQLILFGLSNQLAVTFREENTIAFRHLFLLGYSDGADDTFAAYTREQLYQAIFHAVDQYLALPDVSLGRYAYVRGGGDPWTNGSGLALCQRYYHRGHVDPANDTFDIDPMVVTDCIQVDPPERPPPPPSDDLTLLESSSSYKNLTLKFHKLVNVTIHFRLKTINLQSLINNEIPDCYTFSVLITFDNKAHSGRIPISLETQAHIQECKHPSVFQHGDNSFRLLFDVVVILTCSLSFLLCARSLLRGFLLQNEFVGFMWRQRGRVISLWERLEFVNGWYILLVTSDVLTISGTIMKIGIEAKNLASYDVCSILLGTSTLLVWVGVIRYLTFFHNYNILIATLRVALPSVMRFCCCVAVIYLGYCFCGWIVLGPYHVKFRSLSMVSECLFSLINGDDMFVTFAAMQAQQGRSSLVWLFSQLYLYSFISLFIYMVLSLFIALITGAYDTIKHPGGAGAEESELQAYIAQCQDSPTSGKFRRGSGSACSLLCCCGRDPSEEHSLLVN
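TRPML1-DL cells, Tet-induced overnight (~16 h, 37 °C) at 1,500 cells/well, were loaded with Ca8 no-wash dye plus quencher for 45-90 min at room temperature. Compounds were pinned during FDSS kinetic reading; agonist 54-4 at EC80 (4 uM final) then added.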
TRPML1 agonist: activates the human TRPML1 channel. TRPML1-expressing cells, Ca2+ dye fluorescence, FDSS; host cell line not named in the record; reference of the full effect not given here. activation, % (no concentration beside the values). actives 0.12% (n = 410,000); in the data active = activation above about 50%; inconclusive = about 30% to 50%; inactive = below about 30%; also: 0% is about no effect; the text of the record puts the active cut at 80%
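Calcium fluorescence on an FDSS kinetic reader gave the read-out. Tet-induced TRPML1-DL cells were plated overnight, dye-loaded (Ca8 with quencher, 45-90 min, room temperature, dark), then read 110 s after compound addition, and again 110 s after 4uM final 54-4 (EC80).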
ClpP mod: qHTS Assay for Activators of ClpP; ATP-dependent Clp protease proteolytic subunit (Bacillus subtilis (strain 168)), P80244; actives 1.9% (n = 340,000); Potency, µM (series often up to 57.5 µM), for inactives: top-dose activity change, negative = active; purified B. subtilis ClpP, FRET peptide cleavage, 20 min; active = well fitted falling curve with a large enough effect; inconclusive = small, poorly fitted or top-dose-only effect; inactive = no such curve, though single readings can be large or run the other way; also: potency is read from the fitted curve at half-maximal effect; the source files actives as falling curves though it sought activators and does not explain the sign; nearly all actives have a fitted effect of over 65% in size; many hits overshoot -100%
Target sequence (P80244 whole entry, looked up): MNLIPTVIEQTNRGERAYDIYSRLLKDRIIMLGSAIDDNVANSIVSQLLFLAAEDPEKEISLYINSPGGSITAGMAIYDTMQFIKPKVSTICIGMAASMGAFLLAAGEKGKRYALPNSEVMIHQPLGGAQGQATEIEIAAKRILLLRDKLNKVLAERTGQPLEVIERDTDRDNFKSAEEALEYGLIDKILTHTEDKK
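ClpP 10 microg/mL final, pH 8 Tris/KCl buffer with BSA, glycerol, Tween-20; compound pinned in; FRET-FV substrate; RT 20 min; Ex320/Em430; ΔFRET vs ADEP 5.8 microM, DMSO, no enzyme.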
* = called active by the depositor; u = inconclusive; x = no result given; & = joins results of further samples; [ ] = remark or other dose.

SMILES	gsp agonist	gsp antagonist	Menin MLL FP FL	TRPML1 blocker	TRPML1 agonist	ClpP mod
COc1ccc(NC(=O)CSc2nnc(N)s2)c([N+](=O)[O-])c1	8.2%[15.4 µM]	3.8%	4.3	-0.1	0.6	-0.8%
COc1cc(-c2nnc(SCC(=O)c3cc(C)n(CC4CCCO4)c3C)o2)cc(OC)c1OC (configuration not stated)	-34.8%	-6.5%	u	37.7	1.3	0.6%
C/C(=N\N=C1\NC(=O)C(Cc2ccccc2)S1)c1ccccc1 (configuration not stated)	1.2%	-14.9%	2.5	u	2.1	1.0%
CS(=O)(=O)N(CCc1ccccc1)CC(=O)N1CCCCCC1	-47.1%[inhibitor]	x	x	-3.1	-0.3	-1.5%
O=c1c2ccccc2nc(/C=C/c2cccc([N+](=O)[O-])c2)n1CCCO	u	-1.0%	x	-2.6	-0.2	0.6%
CCCCNc1nc2c(c(=O)[nH]c(=O)n2C)n1CCOc1ccccc1	u	1.8%	4.8	-4.2	1.8	-4.1%
COc1ccc(OC)c(NC(=O)Cn2nc(C)c3ccccc3c2=O)c1	-2.3%	11.7%	3.2	9.9	-0.5	4.2%
O=C1C=CC(=O)N1c1ccccn1	u	14.9%	x	6.9	-0.1	x
C[C@H](CO)N1C[C@H](C)[C@@H](CN(C)S(=O)(=O)c2ccccc2)Oc2ccc(NC(=O)NC3CCCCC3)cc2C1=O	x	0.7%	x	-3.3	-0.7	0.8%
COc1ccc(CCNc2nc(=O)[nH]nc2C)cc1OC	-44.4%[inhibitor]	8.5%	3.3	-12.1	-0.7	0.7%
COc1ccc(CNc2ccc3c(c2)ncn3-c2ccccc2OC)cc1	3.4%	u	4.0	19.9	2.7	-27.6%
CN(CC(=O)NCc1cccnc1)S(=O)(=O)c1ccccc1	-4.6%	4.0%	-0.6	x	x	-0.6%
COC(=O)[C@]1(CC(C)C)N[C@H](c2ccc(-c3ccccc3)cc2)[C@@H]2C(=O)N(C)C(=O)[C@@H]21	6.5%	-7.1%	x	-11.2	-0.5	u
COc1ccc(N2CCN(C(CNS(=O)(=O)c3c(C)cc(C)cc3C)c3ccco3)CC2)cc1 (configuration not stated)	x	x	x	-12.2	1.0	-20.6%
Cc1c(Cl)cccc1-n1c(SCC(=O)N2CCC(C(=O)O)CC2)nc2ccccc2c1=O	-1.7%[15.4 µM]	5.1%	x	-9.3	-0.2	x
COc1ccc(-c2cn[nH]c2C)cc1	-5.7%[15.4 µM]	6.0%	-2.1	-6.6	1.6	x
CCOC(=O)N1CCC2(CC1)OC(=O)C(C)=C2C(=O)NCc1ccc(C)cc1	x	x	x	-19.8	1.1	1.6%
O=C(CO/N=C/c1ccc2c(c1)OCO2)Nc1cccc(Br)c1	3.1%	-9.7%	u	3.2	0.7	-2.4%
CC1(C)NC(=O)N(CC(O)COC2CCCCC2)C1=O (configuration not stated)	-5.4%	-5.9%	3.6	-5.1	-0.1	-2.5%
COc1ccc(/C=C(/C#N)C(=O)Nc2cccnc2)cc1OC	-28.3%	-1.2%	2.6	-2.0	0.1	6.1%
COc1ccc(N2C(=O)CSC23C(=O)Nc2ccccc23)cc1 (configuration not stated)	-8.0%	-10.5%	0.8	13.8	-1.2	0.5%
O=C(COC(=O)c1ccc(Cl)cc1)NCC1CCCCC1	-10.5%[15.4 µM]	7.7%	x	9.0	-0.3	1.4%
Cc1[nH]c2ccccc2c1C(=O)CSc1nnc(C2CC2)o1	u	6.8%	x	30.9	0.3	1.4%
CCOc1ccc(NCc2cccn2-c2nnc(N3CCC(C(=O)NCCCN4C(C)CCCC4C)CC3)s2)cc1 (configuration not stated)	17.8%	-5.1%	x	-2.8	-0.8	0.6%

Reprinted from the listing for reference:
SMILES	gsp agonist	gsp antagonist	Menin MLL FP FL	TRPML1 blocker	TRPML1 agonist	ClpP mod
Cc1[nH]c2ccccc2c1C(=O)CSc1nnc(C2CC2)o1	u	6.8%	x	30.9	0.3	1.4%
CCOc1ccc(NCc2cccn2-c2nnc(N3CCC(C(=O)NCCCN4C(C)CCCC4C)CC3)s2)cc1 (configuration not stated)	17.8%	-5.1%	x	-2.8	-0.8	0.6%

Continuation:
SMILES	gsp agonist	gsp antagonist	Menin MLL FP FL	TRPML1 blocker	TRPML1 agonist	ClpP mod
CCc1ccc(NC(=O)[C@H](CSCc2ccccc2)N2Cc3ccccc3C2=O)cc1	x	x	x	19.8	0.3	-2.7%
COc1ccc(NC(=O)c2noc3c2CCC3)cc1	u	-13.7%	4.2	-6.6	-0.8	-0.3%
Cc1ccc(S(=O)(=O)c2cn(CC(=O)Nc3ccc(C)c(Cl)c3)c3ccc(C)cc3c2=O)cc1	x	x	x	0.8	0.3	-2.4%
Cc1cc(C)cc(NC(=O)CSc2nc(=O)n(Cc3ccccn3)c3c2CCC3)c1	x	x	x	-7.0	1.1	-4.0%
CC[C@]12c3[nH]c4ccccc4c3CCN1C(=O)C(CC(=O)NCCCOC)C[C@@H]2C(=O)N1CCN(C(=O)c2ccco2)CC1 (some centres not stated)	x	7.0%	x	22.7	-0.4	0.5%
COc1ccccc1NS(=O)(=O)c1cccc(C(=O)NCc2ccccn2)c1	0.0%	-0.5%	-7.1	10.0	0.2	-2.3%
O=C(NC(=S)Nc1ccc(S(=O)(=O)N2CCOCC2)cc1)c1ccccc1[N+](=O)[O-]	-0.1%[15.4 µM]	x	-0.7	-13.3	-0.1	x
COc1ccc(-c2nc3sc(CCNC(=O)C(=O)Nc4cc(F)ccc4F)c(C)n3n2)cc1	x	x	x	-2.5	-0.1	-5.7%
Cn1cc(Br)c(NC(=O)/C=C/C(=O)O)n1	14.4%	6.5%	-1.1	u	0.5	0.1%
O=C(NNC(=O)c1sccc1-n1cccc1)c1ccc(Cl)cc1	18.5%	u	5.6	-10.0	-1.1	-2.6%
CC(C)C1OC(c2cccc(NC(=O)c3cccs3)c2)OCC1(C)C (configuration not stated)	-2.6%[15.4 µM]	-23.0%	0.1	1.1	3.1	-1.5%
O=C(O)CCCC(=O)N1N=C(c2ccco2)CC1c1ccco1 (configuration not stated)	-45.3%[inhibitor]	6.2%	0.0	x	x	-11.6%
O=C(c1cccc(S(=O)(=O)NCc2ccccc2)c1)N1CCN(Cc2ccccc2)CC1	-23.0%	-22.8%	-4.1	11.2	0.0	0.7%
Cc1ccc(CNC(=O)c2cc3c(C)nc4ccccc4c3o2)cc1	-53.2%[inhibitor]	-9.1%	2.9	0.2	1.2	-20.5%
O=C(CSc1nnc(-c2cnccn2)n1Cc1ccco1)c1ccc(Cl)c(Cl)c1	-62.4%[inhibitor]	-15.6%	12.2	2.4	0.6	-0.9%
C/C(=N\NC(=O)c1cc(O)ccc1O)c1cccc(NC(=O)c2ccc(Cl)cc2)c1	16.7%[15.4 µM]	-17.6%	x	14.9	1.3	-1.0%
COc1ccc(N(C(=O)c2snc(C(N)=O)c2N)C(C(=O)NC2CCCC2)c2cccs2)cc1OC (configuration not stated)	u	9.6%	0.0	-6.9	-0.1	x
CC(C)CCc1noc(CN2CCN(c3ccc(Cl)cn3)CC2)n1	-22.4%	5.3%	-0.4	9.5	-0.8	-2.0%
COc1cc(/C=C2/C(=N)N3C(c4ccccc4)=CSC3=NC2=O)ccc1OCC(=O)O	22.9%	-1.8%	23.6	4.7	-0.8	1.7%
Cc1c(C(=O)N2CCCCC2)c(S(=O)(=O)NCc2ccc(F)cc2)c(C)n1C	u	2.4%	-4.9	34.7	-0.5	-1.3%
CCOC(=O)C1=C(C)N=c2s/c(=C\c3ccc(OCC(=O)O)cc3)c(=O)n2C1c1ccccc1 (configuration not stated)	-9.9%[15.4 µM]	-15.1%	14.5	19.6	1.4	0.9%
COc1cccc2sc(Nc3nc(-c4cc5ccccc5oc4=O)cs3)nc12	11.8%	3.4%	2.5	-15.2	-0.2	1.2%
COc1ccc(-c2cc(C(F)(F)F)n3nc(C(=O)Nc4sc5c(c4C(=O)OC(C)C)CCC(C)C5)cc3n2)cc1 (configuration not stated)	x	x	x	8.6	-0.5	-5.7%
Cc1cccc(N2CCN(C(c3ccccc3)c3nnc(-c4ccccc4F)o3)CC2)c1C (configuration not stated)	x	x	x	15.7	-0.2	-5.7%

Taken from above:
gsp antagonist result of `C/C(=N\NC(=O)c1cc(O)ccc1O)c1cccc(NC(=O)c2ccc(Cl)cc2)c1` is entered as -17.6%
gsp antagonist result of `COc1cc(/C=C2/C(=N)N3C(c4ccccc4)=CSC3=NC2=O)ccc1OCC(=O)O` is entered as -1.8%

Next structures follow:
SMILES	gsp agonist	gsp antagonist	Menin MLL FP FL	TRPML1 blocker	TRPML1 agonist	ClpP mod
O=C(Nc1nncs1)c1cccc(S(=O)(=O)N2CCCCC2)c1	-10.2%	-3.2%	0.3	-1.3	-0.2	1.9%
COC(=O)c1c(NC(=O)c2nn(C)cc2Cl)sc2c1CCCC2	33.3%	-5.0%	-0.2	-5.3	-0.8	-29.1%
COc1ccccc1-c1nnc(SCCN2CCOCC2)n1-c1ccc(C)cc1	-9.9%	-22.2%	6.0	20.2	1.5	0.4%
Cc1cc(C)n(-c2ccc(NC(=O)C3CCCCN3C(=O)c3occc3C)cc2)n1 (configuration not stated)	8.8%	-1.0%	x	3.9	-0.3	1.2%
CC(Oc1ccc2c3c(c(=O)oc2c1)CCCC3)C(=O)NCc1ccncc1 (configuration not stated)	12.3%	-14.4%	x	0.1	-0.4	4.5%
CCOc1ccc(-n2c(C)cc(/C=N/Nc3nc(C)cc(=O)[nH]3)c2C)cc1	-23.5%[15.4 µM]	1.8%	2.1	7.8	1.3	x
CC(C#N)(Nc1ccc(Cl)cc1)c1cccnc1 (configuration not stated)	-23.3%	4.3%	2.4	14.1	0.1	-3.5%
O=C(CSc1nnc(-c2cccnc2)n1Cc1ccco1)c1ccc(Cl)c(Cl)c1	-0.5%	-5.8%	u	18.4	2.1	-0.5%
CCOC(=O)c1cn[nH]c1NC(=S)Nc1ccccc1	15.5%	1.5%	-0.3	6.0	-0.2	x
COc1ccc(-c2cc3ccccc3n2CC(O)CN2CCOCC2)cc1 (configuration not stated)	3.3%	-2.1%	2.7	5.5	-0.1	8.91µM*
Cc1nn(-c2ccccc2)nc1CNC(=O)C1CC1	-10.0%[15.4 µM]	6.2%	4.2	-11.9	1.3	x
Cc1ccc(NC(=O)Cn2c(=O)n(-c3ccc(CC(=O)NCC4CCCO4)cc3)c(=O)c3ccccc32)cc1 (configuration not stated)	x	x	x	2.8	0.0	-18.0%
CCN(CC)CCN1C(=O)Cn2c(C)c(C)c3cccc1c32	u	-0.9%&-18.4%	-2.2&-5.3	2.4&-6.7	1.1&-0.2	0.0%&-4.8%
CC1(C)CC(=O)c2cc(C(=O)O)c(=O)n(-c3ccccc3)c2C1	1.7%	1.1%	4.0	0.2	0.2	-5.0%
